Screening results deposited in PubChem by National Center for Advancing Translational Sciences (NCATS).
LT uptake inh – qHTS Assay for Anthrax Lethal Toxin Internalization; Cells, anthrax lethal toxin internalization, FRET ratio (460/530); AID 912, 2007; actives 0.67% (n = 70,000); Potency, µM (top dose mostly 40 µM), inactives show at the top dose activity change, negative = inhibition, most hits filed as inhibitors; active = well fitted falling ratio curve with the 530 nm signal flat; inconclusive = other ratio curves, or a change in one channel alone; inactive = flat curves in the ratio and both channels; the % refers to the ratio; further: on the % scale 0 is the no-effect control and ±100 the full control effect; nearly all actives have a fitted effect of over 50% in size; tested in ME-180 cells; beta-lactamase reporter
SmPrx2 inh – Schistosoma Mansoni Peroxiredoxins (Prx2) | Schistosoma mansoni peroxiredoxin 2 (Prx2) | Potency, µM | actives 0.07% (n = 65,000) | AID 448, 2006 | S. mansoni Prx2 activity coupled to TGR/GSH (TGR is thioredoxin glutathione reductase), NADPH fluorescence loss, qHTS; some inactives read as strong as hits; active means full or partial inhibition curve with a strong effect at the top dose; inconclusive means weaker partial or single-point curve; inactive means no accepted curve; further: series up to 57 µM; many of its hits are not listed in these tables
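Activity is read as the drop in NADPH fluorescence (365/450 nm), recorded every 30 sec for 8 min after H2O2 addition. Prx2 is coupled to TGR-driven NADPH oxidation through glutathione, in phosphate buffer pH 7.4.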
Starred values were filed as active, the others as inactive; ? = inconclusive; nt = not tested or not shown; & = joins results of further samples; [ ] = remark or other dose. Potency means the concentration at half of the fitted maximal effect.

SMILES	LT uptake inh	SmPrx2 inh
CCOC(=O)N1CCN(C(=O)Cn2nc(C)c3sc4ccccc4c3c2=O)CC1	2%	>57
CC1CN(C(=O)c2ccccc2C(=O)c2ncc[nH]2)CC(C)O1 (stereo not given)	-2%	>57
Nc1nc2n(n1)C(c1ccco1)CC(c1ccc(Cl)cc1)N2 (stereo not given)	9%	>57
CN(c1ccccc1C(=O)Nc1ccc2c(c1)OCO2)S(C)(=O)=O	2%	>57
O=C(NC1CCCCC1)N1CCN(C2CCCCC2)CC1	nt	>57
CC(C)(C)OC=O	9%	nt
COC(=O)[C@H](C)NC(=O)NC1CCCc2ccccc21 (stereo not given in full)	nt	>57
Cc1cc(C)n2nc(SCC(=O)N3CCC4(CC3)OCCO4)nc2n1	-2%	>57
NC(=O)COc1c(F)cc(SCCNS(=O)(=O)c2ccccc2)cc1F	?	>57
N[C@H](C(=O)O)c1cc(=O)[nH]o1	-4%&-15%	>57&>57
c1cncc(-c2nc(N3CCCCCC3)c3ccccc3n2)c1	?	>57
Cc1ccc(S(=O)(=O)N2CCN(C(=O)CCC(=O)OCC(=O)Nc3cccc(C#N)c3)CC2)cc1	-6%	>57
CC1Cc2ccccc2N1C(=O)CN1CCc2ccccc2C1 (stereo not given)	-13%	>57
CCCCN(CC)CCCNC(=O)c1cc2c(=O)n(C)c3ccccc3c2n1C	4µM*	>57
O=C1CCCC2=C1C1(CCCCC1)N=C(Nc1nc3ccccc3s1)N2	-6%	>57
Cc1ccccc1-n1nc(C)c2cc(C(=O)N3CCOCC3)sc21	?	>57
COc1ccccc1CNc1ncnc2ccc(-c3ccccc3CN(C)C)cc12	?	>57
COc1cc(C2c3sc(=O)[nH]c3SC3C4CCC(C4)C23)ccc1O (stereo not given)	-30%	>57
O=C(NCC(=O)N(Cc1ccco1)C(C(=O)NC1CCCCC1)c1cccnc1)c1ccco1 (stereo not given)	-8%	>57
Cc1nnc2ccc(N3CCC(C(N)=O)(N4CCCCC4)CC3)nn12	-6%	>57
CCOCCOC(=O)c1[nH]c2c(c1C)C(=O)CC(c1ccc(N(C)C)cc1)C2 (stereo not given)	-17%	>57
COc1ccc(OCC(O)CN2CCCCC2)cc1 (stereo not given)	-9%	>57
CC(C)(C)c1csc(NC(=O)c2ccc(Cl)s2)n1	?	>57
CCc1ccc(CCC(=O)O)nc1	-3%[8 µM]	>57
COCC(=O)N1CCC2(CC1)CN(c1ccccc1)C2	-1%	>57
Cc1cc(Cl)ccc1OC(C)C(=O)Nc1ccccc1N1CCOCC1 (stereo not given)	?	>57
Cn1c(CCCNC(=O)c2cccs2)nc2ccccc21	4%	>57
C=C(C)CSc1nnc([C@@H]2CCCN2C(=O)OC(C)(C)C)o1	1%	>57
CC(C)(C)NC(=O)c1cnn2c1NC(c1ccc(F)cc1)CC2C(F)(F)F (stereo not given)	6%	nt
CCOC(=O)c1ncn2c1[C@H]1CCCN1C(=O)c1cc(OC)ccc1-2	?	>57&>57
Nc1c(C(=O)c2cccs2)oc2ccccc12	11%	>57
O=C(Nc1ccc(S(=O)(=O)Nc2cnc3ccccc3n2)cc1)c1ccc(Br)o1	-14%	>57
O=c1c2cc(Cl)cc(Cl)c2nc(CN2CCOCC2)n1-c1ccccc1F	11%	>57
O=C(NC12CC3CC(CC(C3)C1)C2)c1ccc(=O)oc1	4%	>57
Cc1cccc(NC(=O)COc2ccc(Br)cc2C)n1	8%	>57
Cc1cccn2c(=O)c3cc(C(=O)N(C)C)n(C)c3nc12	16%	>57
ClCCBr	-5%	nt
c1ccc2occc2c1	-6%	nt
O=C(C1CCN(C2CC(=O)N(c3cccc(Cl)c3)C2=O)CC1)N1CCCC1 (stereo not given)	-8%	>57
Cc1ccc2c(c1)c1c(n2CC2COC(C)(C)O2)C(=O)CCC1 (stereo not given)	-29%	nt
O=C1c2ccccc2C(=O)N1Cc1nc2ccccc2c(=O)n1-c1ccccn1	nt	>57
COCCN1Cc2cccc(C(=O)NCc3ccccc3OC)c2C1=O	-11%	>57
Cc1ccnc(N2CCC(C(=O)NC3CCCCCC3)CC2)n1	-1%	>57
O=C(N/N=C1/C[C@@H](O)[C@@H](O)[C@@H]2[C@@H]3C(=O)N(Cc4ccccc4)C(=O)[C@H]3CC[C@H]12)OCc1ccccc1	3%[0.32 µM]	nt
N=c1c(C(=O)NCc2ccco2)cc2c(=O)n3ccccc3nc2n1Cc1ccccc1	?	>57
Cc1c(C(=O)COC(C)(C)C)[nH]c2ccccc12	-17%	?
O=C(Nc1cccc(F)c1)N1CCCC2(CCN(C(=O)c3cccc(F)c3)CC2)C1	?	>57
COc1ccccc1CNC(=O)CCNC(=O)Cn1ccc2ccccc2c1=O	13%	>57
Clc1ccc(CSc2ncn[nH]2)cc1	-1%	>57
CC1CCN(S(=O)(=O)Cc2ccccc2Cl)CC1	-6%	>57

The listing continues.
SMILES	LT uptake inh	SmPrx2 inh
O=C(O)CSc1ccn(Cc2ccccc2)c1	-4%[8 µM]	>57
COc1cccc(OCC(=O)Nc2ccccc2NC(C)=O)c1	7%	>57
CCCCN(C)C(=O)C1CCC(=O)N(c2cc(OC)c(OC)c(OC)c2)C1c1ccc(OC)cc1 (stereo not given)	0%	>57
CCOC(=O)N1CCN(S(=O)(=O)c2ccc(F)cc2)CC1	-10%	>57
CCCCn1c(O)c(C=Nc2c(C)n(C)n(-c3ccccc3)c2=O)c(=O)[nH]c1=O	-12%	>57
COC(=O)CSc1ncc(C#N)c(N)n1	-8%	>57
CCC(c1nnnn1C(C)C)N1CCN(C2CCCC2)CC1 (stereo not given)	-7%	>57
COc1ccc(C(=O)N2CCCc3ccccc32)cc1	-15%	>57
O=C(O)c1cc(C(=O)O)c(-c2ccccc2)c(C(=O)O)c1	-9%	>57
CCc1nc(N2CCC(C)CC2)c2oc3ccccc3c2n1	-20%	>57
CC(CP(=O)(O)O)NC(=O)Cc1ccccc1 (stereo not given)	?	>57
COc1ccc(F)cc1S(=O)(=O)n1cc(C)nc1-c1ccccc1	6%	>57
NC(=O)CSc1nnc(-c2ccoc2)o1	-4%	>57
Cc1ccc(Cn2c3ccccc3c3cn[nH]c(=O)c32)cc1	6%	>57
O=[N+]([O-])c1cc(Cc2cc([N+](=O)[O-])c3cccnc3c2O)c(O)c2ncccc12	3%[8 µM]	>57
O=C(O)c1cc(S(=O)(=O)O)ccc1O	10%	>57
Cc1ccccc1-c1ccc(Nc2ccc(N3CCOCC3)cc2)nn1	-6%	>57
CCOC(=O)c1cc2sccc2n1CC(=O)N1c2ccccc2CC1C (stereo not given)	10%	>57
COC(=O)C(C)Sc1nnc(SC(C)C(=O)OC)s1 (stereo not given)	?	>57
CC(=O)c1ccc(OC(C)C)c(CSc2nc(O)cc(=O)[nH]2)c1	-11%	>57
O=C(OCc1nnc(-c2ccc(Cl)cc2)o1)c1ccncc1	8%	>57
N#CC1=C(N)OC(c2ccccc2)=C(C#N)C1c1ccc2c(c1)OCO2 (stereo not given)	-19%	>57
C[C@@]12C(=O)OC(=O)[C@@]1(C)[C@@H]1CC[C@@H]2O1	-20%	>57
CN(CCc1ccc(Cl)c(Cl)c1)CCN1CCCCCC1	?	>57
CCOc1cc(S(=O)(=O)n2nc(C)cc2C)ccc1F	5%	>57
Cn1c(=O)oc2cc(S(=O)(=O)NC3CCN(Cc4ccccc4)CC3)ccc21	-4%	>57
CCC(C)(C(=O)NC1CCCC1)N(Cc1cccs1)C(C)=O (stereo not given)	4%	>57
C=CCC1C=CC(Oc2ccc(OC)cc2)C(CO)O1 (stereo not given)	-2%[8 µM]	nt
CN1CCN(S(=O)(=O)c2ccc3[nH]cc(C(=O)O)c(=O)c3c2)CC1	nt	>57
CCOC(=O)c1nnn(-c2nonc2N)c1-c1ccc(OC)cc1	-6%	>57
Cn1c(Cc2cccs2)nnc1SC/C=C/c1ccccc1	-10%	>57
COc1ccc(N(C)S(=O)(=O)c2cccc3cccnc23)c(OC)c1	-14%	>57
COc1ccc(N=CC2=C(O)CC(C)(C)CC2=O)cc1	14%	>57
Cc1ccnc(SCCn2c(N3CCN(C)CC3)nc3c2c(=O)[nH]c(=O)n3C)n1	-5%	>57
Cc1ccc(N2CC(C(=O)Nc3cccc(F)c3)CC2=O)cc1 (stereo not given)	0%	>57
CC(=O)Nc1cc(C(=O)O)ccc1S(=O)(=O)c1ccc(Cl)cc1	?	>57
COc1cccc(NC(=O)Cc2nnc(SCC(=O)c3ccccc3)n2C)c1	-23%	>57
CCN(CC(=O)N1CCCCCC1)S(=O)(=O)c1ccc(Cl)cc1	19%	>57
CCCn1c(=O)c2c(c3ccccc31)OC(C)C(=O)N2 (stereo not given)	-7%	>57
N#CC1=C2SCN(Cc3ccccc3)CN2C(=O)CC1c1ccccc1F (stereo not given)	-2%	>57
O=c1[nH]ncc2ccccc12	?	nt
O=C(O)Cn1cccc1C(=O)c1ccccc1	?	>57
Cc1ccc2ccc3cccc4ccc1c2c34	?	nt
CCOc1ccc(CCNc2nc3c(c(=O)n(C)c(=O)n3C)n2CC)cc1OCC	nt	>57
Nc1ccc(Cl)cc1[N+](=O)[O-]	-11%	nt
CCN(CC)CCCN1C(=O)C(O)=C(C(=O)c2cccs2)C1c1ccccn1 (stereo not given)	-9%	>57
CCNC(=O)Cc1ccc(NS(=O)(=O)c2ccc(F)cc2)cc1	nt	>57
CCOC(=O)c1c(C)c(-c2ccccc2)n(CC(=O)N2CCCC2)c1C	-1%	>57
O=C(Cn1cnc2ccccc2c1=O)c1ccc2c(c1)OCCO2	?	>57
N#CC1=C(N)C(C#N)(C#N)[C@H](c2ccoc2)[C@H]2CN(Cc3ccccc3)CC=C12	?	>57

(listing goes on)
SMILES	LT uptake inh	SmPrx2 inh
COCCOC(=O)c1c(N)n(Cc2ccc(OC)cc2)c2nc3ccccc3nc12	?	nt
COc1ccc(Oc2ncnc3c2ncn3Cc2ccccc2)cc1	?	>57
O=C(Nc1ccc2c(c1)nc1n2CCN(Cc2ccccc2)C1)c1cccs1	-23%	>57
CCOC(=O)CC(=O)Nc1ccccc1C(=O)O	-3%	nt
CCOc1cccc(/C(O)=C2/C(=O)C(=O)N(CCOC)C2c2ccncc2)c1 (stereo not given)	2%	>57
CCc1c(C)nc(N)nc1OCC(F)(F)C(F)F	2%	nt
CC(C)CC1N=C2c3ccccc3N=C(SCc3cc(=O)n4ccccc4n3)N2C1=O (stereo not given)	5%	>57
O=C(NCc1cccs1)Nc1cccs1	?	>57
CCOC(=O)c1ccc(N2C(=O)CC(N3CCN(C/C=C/c4ccccc4)CC3)C2=O)cc1 (stereo not given)	-10%	nt
CCN(CC)CCN=Cc1c(O)n(CCC2=CCCCC2)c(=O)[nH]c1=O	nt	>57
CN(C)S(=O)(=O)n1cnc2ccccc21	-17%	>57
CCOC(=O)N1CCN(C(=O)C2CCN(S(=O)(=O)N3CCCC3)CC2)CC1	?	>57
N#CC1=C(N)Oc2c(ccc3cccnc23)C1c1cccnc1 (stereo not given)	13%	>57
COc1cc(NS(=O)(=O)c2ccc(F)cc2)c(OC)cc1NC(C)=O	-1%	>57
Cc1cccc(C)c1NC(=O)C(c1ccccc1)N1CCN(C(=O)c2ccco2)CC1 (stereo not given)	26%	>57
CCCCN=Cc1c(O)n(-c2c(C)cc(C)cc2C)c(=O)[nH]c1=O	13%	>57
Cc1ccc(Cn2nnc3c(=O)n(CC(=O)OCc4ccccc4)cnc32)cc1	-4%	>57
COc1ccccc1N1CCN(CCN(C(=O)C2CCCCC2)c2ccccn2)CC1	8%	>57
O=C(COc1ccc(S(=O)(=O)NC2CCCCC2)cc1)N1CCN(c2ccc(F)cc2)CC1	-20%	>57
CC(C)N(Cc1nc(-c2ccccc2)no1)C(=O)CN1C(=O)c2ccccc2C1=O	-4%	>57
CCOC(=O)Cn1nnc(-c2cccc(OC)c2)n1	13%	>57
O=C(c1cccs1)N1CCN(C(=O)c2ccco2)c2ccccc2C1	3%	>57
CCOC(OCC)P(=O)(c1ccccc1)c1ccccc1	-7%	>57
CCCCCCS(=O)Cc1ccccc1 (stereo not given)	1%	nt

Some of the compounds tested (hit frequency here may not be typical).
